# Assay outcomes as filed in PubChem BioAssay.
# Anaer choline gr: inhibitors of anaerobic choline-dependent gram-negative bacterial growth | Gram-negative bacterium anaerobic choline minimal medium, absorbance growth; stronger effect = lower value; many inactives read as strong as hits in the columns shown | calls only | 55,000 tested, 0.2% active;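 active = growth z-score on choline under -2 at 7 or 20 h with little or no fall on glycerol, limits in tiers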;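 note: stock transfer was 300 nL into about 50 µL; the organism is E. coli; final concentration not given here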
# Anaer choline gr early: second read-out of Anaer choline gr, no call of its own (marks repeat the call); z-score; measured here: choline growth z-score, timepoint 1;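 score of optical density at 7 h as mean of two plates; lower means less growth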
# Numbers without * were called inactive; i = inactive; + = active, no number; & = joins results of further samples. Only part of the results is shown, so the mix of outcomes need not match the whole.
# Every second line gives: Anaer choline gr | Anaer choline gr early
> O=C(O)CCCCCC[C@@H]1[C@@H](CC[C@@H](O)CCc2cccc(C(F)(F)F)c2)[C@H](O)C[C@@H]1O
  i | -1
> Cc1ccc(OCC(O)Cn2c(C3CC(=O)N(C(C)(C)C)C3)nc3ccccc32)cc1C (stereo unspecified)
  i | 1
> COc1ccc(OCC(=O)N2CCOc3ccc(COCc4ccccc4)cc3C2)cc1
  i | 0.09
> Cc1c(C)n(-c2ccccc2)c2ncn(CCC(=O)NC3CCCc4ccccc43)c(=O)c12 (stereo unspecified)
  i | 0.73
> Cc1cc(=O)n2nc(N3CCCC(C(=O)N4CCC(Cc5ccccc5)CC4)C3)sc2n1 (stereo unspecified)
  i | 0.53
> CCN(Cc1ccccc1)S(=O)(=O)c1ccc(S(=O)(=O)N(Cc2ccccc2)Cc2ccccn2)cc1
  i | 2.2
> CCc1c(C)nc2ncnn2c1NCc1cc(OC)ccc1OC
  i | -0.95
> O=C(c1sc2cc(F)ccc2c1Cl)N1CCN(Cc2ccc3c(c2)OCO3)CC1
  i | 0.61
> CCCCC/C=C\C/C=C\C/C=C\C=C\[C@@H](O)CCCC(=O)O
  i | 0.56
> Cc1ccc(NC(=O)c2cn(C)c3c(c(C)nn3-c3ccc(F)cc3)c2=O)cc1F
  i | 2
> COc1ccc(-c2noc(CCCC(=O)Nc3cccnc3)n2)cc1
  i | -1.4
> CC(C(=O)N1CCCC1)N1C(=O)CCCc2ccccc21 (stereo unspecified)
  i | 0.49
> Cc1ccc(S(=O)(=O)Nc2cccc(C(=O)N3CCCC(C(=O)NCC4CCCO4)C3)c2)cc1 (stereo unspecified)
  i | -0.04
> CCC(C)NS(=O)(=O)c1cc(-c2nnc(C)o2)cs1 (stereo unspecified)
  i | 0.41
> CCSc1nnc2c(n1)OC(c1ccc(C)cc1)Nc1ccccc1-2 (stereo unspecified)
  i | -0.8
> CCc1nc(-c2cc(S(=O)(=O)Nc3c(C)n(C)n(-c4ccccc4)c3=O)c(C)s2)no1
  i | -0.19
> CC1CCN(c2ncc3c(n2)CCC(C(=O)N2CCOCC2)C3)CC1 (stereo unspecified)
  i | -2.7
> CC1CCN(CC2CCN(S(=O)(=O)N(C)C)CC2)CC1
  i | -0.86
> Cc1ccc(C)c(NC(=O)N2CCSc3nc(C)cc(C)c32)c1
  i | 0.4
> O=C(NCc1ccccc1Cl)c1ccc(NC(=O)N2CCSc3ccccc32)cc1
  i | 1.2

# Every second line gives: Anaer choline gr | Anaer choline gr early
> Nc1cccc(-c2csc(N)n2)c1
  i | -0.1
> Cc1ccccc1-c1noc(N2CCC(C(=O)N3CCN(C4CCCCC4)CC3)CC2)n1
  i | -0.42
> O=C(C1CCCN(S(=O)(=O)Cc2cccc(Cl)c2)C1)N1CCN(S(=O)(=O)c2ccccc2)CC1 (stereo unspecified)
  i | -0.16
> Cc1ccc(Nc2nc(NC3CCCC3)nc3c2cnn3-c2ccccc2)cc1
  i | 0.86
> CCOC(=O)c1cc(-c2ccc(OC)c(S(=O)(=O)Nc3cc(C)on3)c2)on1
  i | -0.4
> CCCCN(C)c1ccc2nnc(CCC(=O)O)n2n1
  i | 0.01
> CCOc1ccc(C2CC(=O)N(Cc3ccccc3)c3c2c(C)nn3-c2nc(C)cc(C)n2)cc1 (stereo unspecified)
  i | -0.26
> Cc1noc(C)c1CNC(=O)c1ccc(CN2C(=O)C3CCCN3C(=O)c3ccccc32)cc1 (stereo unspecified)
  i | 0.88
> Cc1c(Cl)cccc1NC(=O)CCc1nc(CSc2n[nH]c(-c3ccccc3)n2)no1
  i | 0.26
> COc1cccc(-c2noc(CCCn3c(=O)[nH]c4cc5c(cc4c3=O)OCO5)n2)c1OC
  i | -0.07
> COc1ccc(C(=O)CSc2nnc(-c3ccccc3)n2-c2ccccc2)cc1
  i | 0.73
> COc1ccc(N2CCN(S(=O)(=O)c3cc4c(cc3C)N(C(C)=O)CCO4)CC2)cc1
  i | -0.23
> CCSc1nccc2c1ccn2CC(=O)NCc1cc(OC)ccc1OC
  i | 0.06
> O=C(CCn1c(=O)sc2cc(S(=O)(=O)N3CCc4ccccc43)ccc21)N1CCCC1
  i | 0.67
> O=C(c1cnc(N2CCCCC2)c2ccccc12)N1CCCC1
  i | 0.88
> CC(C)C[C@H]1C(=O)N2CCC[C@H]2[C@]2(O)O[C@](NC(=O)[C@@H]3C=C4c5cccc6[nH]c(Br)c(c56)C[C@H]4N(C)C3)(C(C)C)C(=O)N12
  i | 0.81&-0.32&1.2
> CCOC(=O)c1ccc(Nc2ncnc3ccccc23)cc1
  i | -0.12
> COc1ccc(CCN2C(=O)c3cc4sccc4n3CC2(C)C(=O)NC2CCCCC2)cc1OC (stereo unspecified)
  i | 0.39
> COc1ccc(C2c3c(n(C)c4ccccc34)C(=O)N2CC(=O)NCCc2ccccc2)cc1 (stereo unspecified)
  i | 0.56
> CCSc1nnc2c(n1)OC(c1ccc(OC)cc1)N(C(C)=O)c1ccccc1-2 (stereo unspecified)
  i | -0.09

# Every second line gives: Anaer choline gr | Anaer choline gr early
> CCc1ccc(N2C(=O)c3cc4ccsc4n3CC2(C)C(=O)NC2CCCC2)cc1 (stereo unspecified)
  i | 0.01
> CN(C)C(=O)c1ccc2c(c1)nc(CN1CCN(S(=O)(=O)c3ccc(F)c(Cl)c3)CC1)n2C
  i | -0.3
> O=C(NCCc1nnc2ccc(NCCCc3ccccc3)nn12)c1ccccc1F
  i | 0.4
> CCc1nc2nc3c(c(=O)n2[nH]1)CCC3
  i | 0.38
> CS(=O)(=O)N1CCCN(c2nc3cc(Cl)ccc3n3cccc23)CC1
  i | -0.34
> CC1CCCN(S(=O)(=O)c2cc(-c3nnc(C4CC4)o3)co2)C1 (stereo unspecified)
  i | 0.18
> O=C(NC1CCCC1)C1CCCN(S(=O)(=O)Cc2ccccc2)C1 (stereo unspecified)
  i | -0.07
> Cc1cc(S(=O)(=O)N2CCc3cc4cccc(C)c4nc32)ccc1F
  i | -0.98
> CCn1c(=O)c(C(=O)Nc2nc(C)cs2)c(O)c2ccccc21
  i | 0.14
> CCSc1nn(CC(=O)Nc2cc(Cl)ccc2OC)c(N)c1S(=O)(=O)c1ccc(C)cc1
  i | 1.4
> COc1cccc(-c2nn(C)c3sc(C(=O)NCC4COc5ccccc5O4)cc23)c1 (stereo unspecified)
  i | 0.07
> COc1ccccc1NC(=O)c1nn(C)c2c1CSc1ccccc1-2
  i | 0.29
> CCN(CCCNC(=O)CCCn1c(=O)[nH]c2ccsc2c1=O)c1cccc(C)c1
  i | 0.17
> CCCNC(=O)C1CCCN(c2ccc(=O)n(-c3ccc(OC)cc3)n2)C1 (stereo unspecified)
  i | -3.1
> Cc1cccc(NC(=NCc2ccncc2)NC(=O)c2ccc3c(c2)OCO3)c1
  + | 0.04*
> O=C1CCCc2cc(S(=O)(=O)N3CCCC(C(=O)NCCc4ccc(Cl)cc4)C3)ccc2N1 (stereo unspecified)
  i | 0.21
> COc1ccc(S(=O)(=O)c2c(C)cc(C)n(CC(=O)Nc3ccc4c(c3)OCCO4)c2=O)cc1OC
  i | 0.05
> Cc1ccc(CNS(=O)(=O)c2cc3c(=O)n(C)nc(C)n3c2)o1
  i | -1.4
> Cn1c(=O)n(CC(=O)N2CCCC2)c(=O)c2cc(S(=O)(=O)NCc3ccccc3Cl)ccc21
  i | -1.4
> CCOC(=O)c1cnc(SCC(=O)Nc2cc(Cl)ccc2OC)nc1N
  i | 1.9

# Every second line gives: Anaer choline gr | Anaer choline gr early
> O=C(NCc1ccccc1)C1CCN(C(=O)c2sccc2-n2cccc2)CC1
  i | 0.4
> CC1CN(C(=O)CCC(=O)N2CCCCC2)c2ccccc2S1 (stereo unspecified)
  i | 0.27
> Cc1ccc(C)c(S(=O)(=O)N2CCCC2c2cc(C(C)C)no2)c1 (stereo unspecified)
  i | -0.65
> CCCCC(=O)Nc1cc2[nH]c(=O)[nH]c2cc1C
  i | -0.06
> Cc1cc(C)nc(N2CCN(c3cc(C)nc4c(C)c(-c5ccc(Cl)cc5)nn34)CC2)n1
  i | -0.69
> Cc1nnc2ccc(NC(C)C)nn12
  i | -0.86
> CCOc1ccc(NC(=O)c2cnn3c2NC(c2ccccc2)=CC3c2cccc(OC)c2)cc1 (stereo unspecified)
  i | 1.4
> CCCCNCC1C(Oc2ccc(Cl)cc2)C(=O)N1c1ccccc1C (stereo unspecified)
  i | 0.14
> CC1CCN(C(=O)c2cccc(C3CCCN(C(=O)NC(C)C)C3)c2)CC1 (stereo unspecified)
  i | 0.26
> CCN(C(=O)Nc1ccc(OC)cc1)c1nc(-c2ccc(Br)cc2)cs1
  i | -0.86
> CC1CCN(S(=O)(=O)c2c[nH]c(-c3nnc(C(=O)N4CCOCC4)o3)c2)CC1
  i | 0.07
> CC(C)(NS(=O)(=O)c1ccc(Oc2ccc(F)cc2)cc1)C(=O)NO
  i | 0.54
> Nc1nc2c(c(=O)[nH]1)C(c1c(F)cccc1Cl)CC(=O)N2 (stereo unspecified)
  i | 0.23
> Cc1ccc(N2C(=O)c3cc(C)nn3CC2(C)C(=O)NCc2ccccc2)cc1 (stereo unspecified)
  i | -1.1
> Cc1ccc(NC(=O)C2CC3CSCN3C23C(=O)Nc2ccccc23)cc1Cl (stereo unspecified)
  i | 1.6
> Cc1ccc(S(=O)(=O)N2CCc3nc(N4CCCCC4)ncc3C2)cc1C
  i | 0.98
> c1ccc(-c2ccc(CNCCc3c[nH]c4ccccc34)o2)cc1
  i | -7.9
> Cc1cc(CN2CCN(Cc3ccc4c(c3)OCO4)CC2)cs1
  i | -0.59
> Cc1csc2nc(CSc3ccccc3NC(=O)C(C)Oc3ccccc3)cc(=O)n12 (stereo unspecified)
  i | 0.85
> COc1ccc(-c2cc(C(=O)NCc3ccccc3)c3c(-c4ccccc4)[nH]nc3n2)cc1OC
  i | 3

# Every second line gives: Anaer choline gr | Anaer choline gr early
> COc1cc(C2Nc3ccc(F)cc3[C@H]3OCCC[C@@H]23)cc(Br)c1OC (stereo partly specified)
  i | 1
> Cc1nc2sc3ccccc3n2c(=O)c1S(=O)(=O)Nc1ccc(N2CCOCC2)cc1
  i | 0.78
> CC(C)n1c(=O)c(=O)[nH]c2cc(-c3noc(Cc4ccc(Br)cc4)n3)ccc21
  i | 0.58
> Cc1nc(SCc2cc(=O)n3c(C)csc3n2)n[nH]1
  i | -0.13
> Cc1ccc2nc(-n3nc(C)c4c3NC(=O)CC4c3ccc4c(c3)OCO4)sc2c1 (stereo unspecified)
  i | 0.95
> Cc1ccc(Cl)cc1NC(=O)CCc1nc(CSc2nc3ccccc3[nH]2)no1
  i | -0.56
> COc1ccc2cc(C(=O)N3CCN(C(=O)c4nsc5ccc(C)cc45)CC3)[nH]c2c1
  i | 0.83
> Cc1ccc(C)c(C(=O)Cn2nc3n(C(C)C)c(=O)c4ccc(C(=O)NCC(C)C)cc4n3c2=O)c1
  i | -0.48
> CCOC(=O)C1CCCc2c1[nH]c1c(C(=O)NCc3ccccc3)cccc21 (stereo unspecified)
  i | 1.2
> CCOC(=O)c1cc2ccsc2n1CC(=O)Nc1c(C)cc(C)cc1C
  i | 0.21
> Cc1ccc(-c2ccc(=O)[nH]n2)cc1S(=O)(=O)N1CCCCC1
  i | -0.24
> CCc1ccc2oc(C(=O)NCCc3nc(-c4ccccc4)no3)c(C)c2c1
  i | 2.1
> COc1ccc(-c2nn3c(=O)cc(CNC(=O)Nc4ccc(OC)cc4OC)nc3s2)cc1
  i | 0.19
> CCOC(=O)CCc1c(C)nc2nc(CNc3ccccc3OCC)[nH]n2c1=O
  i | 0.49
> Cc1[nH]c(C)c(S(=O)(=O)NC2CC2)c1-c1nnc(C2CCC2)o1
  i | 0.47
> Cc1ccc(-c2nnc(-c3cccc(S(=O)(=O)Nc4ccccc4O)c3)o2)cc1
  i | 1
> COc1ccccc1-n1c(=O)c2c3c(sc2n(Cc2ccccc2C)c1=O)CN(C(C)=O)CC3
  i | -1.7
> CC(=O)N1CCOc2ccc(S(=O)(=O)N3CCN(Cc4ccccc4)CC3)cc21
  i | 0.23
> Cc1ccc(-c2n[nH]c3c2C(c2cccnc2)NC3=O)cc1 (stereo unspecified)
  i | -0.8
> CCc1ccc(C2=C(C)C(N3CCCN(S(=O)(=O)C(C)C)CC3)=NS2(=O)=O)cc1
  i | 0.31

# Every second line gives: Anaer choline gr | Anaer choline gr early
> CCOc1ccc(CC(=O)Nc2cccc(N3CCCS3(=O)=O)c2)cc1
  i | -1.2
> O=S(=O)(c1ccc(-c2cnc(C3CC3)o2)s1)N1CCOCC1
  i | -0.65
> Cc1cccc(Oc2ccc(-c3noc(-c4ccnn4C)n3)cc2)c1
  i | 1.3
> COc1ccccc1N1CCN(S(=O)(=O)c2cc(-c3nc(C(C)C)cs3)sc2C)CC1
  i | 0.69
> CN(C)S(=O)(=O)c1ccc2c(c1)cc(C(=O)NC1CCCC1)n2Cc1ccncc1
  i | -0.15
> CCCC[C@@H](C=O)NC(=O)[C@H](CC(C)C)NC(=O)OCc1ccccc1
  i | 0.61&0.6
